rRNA inh HTS = reduced GFP signal of wild-type E. coli, primary screen, bacterial rRNA inhibitor project, GFP/RFP fluorescence, OD600, single point; E. coli WT GFP vs humanized-ribosome RFP mutants, 24 h; hits give low values; DMSO median 0, no signal -100; GFP signal change (wild-type ribosome), % (concentration not given with the values); 1.6% of 350,000 active; AID 720706, 2013;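 active means significant combined selectivity score with lowered wild-type GFP, culture density cut under 30%, mutant RFP and density less affected; inactive means any of these conditions unmet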; further: one replicate is shown; some compounds called inactive have numbers as strong as hits
rRNA inh HTS OD600 = second read-out of rRNA inh HTS, no call of its own (marks repeat the call); OD600 change, %; measured here: OD600 growth;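 optical density of the mix in the first replicate; 0 = DMSO median and -100 = no signal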
rRNA inh HTS RFP = also measured in rRNA inh HTS; calls as there; RFP signal change, %; measured here: RFP humanized mutant strains;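 first replicate; 0 = DMSO median and -100 = no signal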
* hit, by the source's call; & = joins results of further samples.

O=C(Nc1ccccc1)N1CCCCN2[C@H](CO)[C@H](c3ccc(Br)cc3)[C@@H]2C1 was read as rRNA inh HTS -5.3, rRNA inh HTS OD600 -8.5 and rRNA inh HTS RFP -5.1.
`COc1ccc(NC(=O)N(C)C[C@H]2OCCCC[C@H](C)Oc3ccc(NC(=O)Nc4ccc(C(F)(F)F)cc4)cc3C(=O)N([C@@H](C)CO)C[C@@H]2C)cc1` gave rRNA inh HTS 2.1, rRNA inh HTS OD600 7.9 and rRNA inh HTS RFP 0.7.
O=C(C[C@@H]1C[C@H]2c3cc(NC(=O)NC4CCCC4)ccc3O[C@H]2[C@H](CO)O1)NCCN1CCCCC1 was read as rRNA inh HTS 2.5, rRNA inh HTS OD600 5.7 and rRNA inh HTS RFP 0.0.
For O=C(C[C@H]1CC[C@@H](NC(=O)c2ccncc2)[C@@H](CO)O1)NCC1CC1 the results were rRNA inh HTS -2.5&10.5, rRNA inh HTS OD600 2.9&6.5 and rRNA inh HTS RFP 0.5&1.7.
COc1ccc2c3c([nH]c2c1)[C@H](CO)N(S(=O)(=O)c1ccc(C)cc1)CC31CN(C(=O)Cc2cccnc2)C1 was read as rRNA inh HTS -4.5, rRNA inh HTS OD600 4.2 and rRNA inh HTS RFP -0.7.
For CNC[C@@H]1Oc2c(NS(C)(=O)=O)cccc2C(=O)N(C)C[C@@H]1C the results were rRNA inh HTS -3.5, rRNA inh HTS OD600 4.2 and rRNA inh HTS RFP -5.0.
For C[C@@H]1CN([C@H](C)CO)C(=O)c2cccc(NS(=O)(=O)c3ccccc3)c2O[C@@H]1CN(C)S(C)(=O)=O the results were rRNA inh HTS 2.2, rRNA inh HTS OD600 2.4 and rRNA inh HTS RFP -2.1.
For COC(=O)C[C@@H]1CC[C@@H]2[C@H](COc3ccc(NS(=O)(=O)c4ccccc4F)cc3C(=O)N2C)O1 the results were rRNA inh HTS -1.1, rRNA inh HTS OD600 1.7 and rRNA inh HTS RFP 1.7.
Screening Cc1ccccc1S(=O)(=O)N[C@H]1CC[C@H](CCn2cc(-c3ccccc3)nn2)O[C@@H]1CO returned rRNA inh HTS 2.4, rRNA inh HTS OD600 1.1 and rRNA inh HTS RFP -2.5.
`C[C@@H]1CN([C@H](C)CO)C(=O)c2c(c3ccccc3n2C)-c2ccccc2CO[C@H]1CN(C)C(=O)Nc1cccc(F)c1` gave rRNA inh HTS 0.3, rRNA inh HTS OD600 3.8 and rRNA inh HTS RFP 5.8.
COc1cccc(S(=O)(=O)N(C)C[C@@H]2Oc3ncc(-c4ccccc4)cc3C(=O)N([C@H](C)CO)C[C@@H]2C)c1 was read as rRNA inh HTS -0.8, rRNA inh HTS OD600 -1.8 and rRNA inh HTS RFP 3.5.
CCCCCC(=O)N1C[C@H](n2cc(-c3ccc(F)cc3)nn2)[C@@H](O)C[C@@H]1c1ccc(Cl)cc1 was read as rRNA inh HTS -0.1, rRNA inh HTS OD600 1.1 and rRNA inh HTS RFP -5.7.
`C[C@@H]1CCCCO[C@@H](CN(C)Cc2ccccc2)[C@H](C)CN([C@@H](C)CO)C(=O)c2cc(NC(=O)NC3CCCCC3)ccc2O1` gave rRNA inh HTS 3.8, rRNA inh HTS OD600 -9.5 and rRNA inh HTS RFP 4.6.
COc1ccc(-c2cnc3c(c2)C(=O)N([C@@H](C)CO)C[C@@H](C)[C@@H](CN(C)C(=O)C2CC2)O3)cc1 was read as rRNA inh HTS -3.7, rRNA inh HTS OD600 -2.4 and rRNA inh HTS RFP -3.6.
CCN(CC(=O)Nc1ccc(NC(C)=O)cc1)C(=O)C1(c2ccc(Cl)cc2)CCC1 was read as rRNA inh HTS -6.0, rRNA inh HTS OD600 -14.0 and rRNA inh HTS RFP 7.8.
C[C@H](CO)N1C[C@H](C)[C@@H](CN(C)Cc2ccc3c(c2)OCO3)Oc2ccc(N(C)C)cc2C1=O was read as rRNA inh HTS 2.6, rRNA inh HTS OD600 9.1 and rRNA inh HTS RFP 0.4.
`C[C@@H]1CN([C@@H](C)CO)S(=O)(=O)c2ccc(C3=CCCC3)cc2O[C@H]1CN(C)Cc1ccccn1` gave rRNA inh HTS -22.0, rRNA inh HTS OD600 -56.6 and rRNA inh HTS RFP 5.9.
O=C(C[C@@H]1CC[C@@H](NC(=O)C2CC2)[C@H](CO)O1)Nc1ccccc1 was read as rRNA inh HTS -1.6, rRNA inh HTS OD600 -5.8 and rRNA inh HTS RFP -0.2.
Screening O=C(c1cnccn1)N1CC(=O)N2[C@@H](CO)[C@H](c3ccc(/C=C/c4ccccc4)cc3)[C@@H]2C1 returned rRNA inh HTS -0.4, rRNA inh HTS OD600 4.2 and rRNA inh HTS RFP -3.8.
CCC(=O)N1[C@@H](CO)[C@H](c2ccccc2)C12CN(C(=O)c1cnccn1)C2 was read as rRNA inh HTS 3.3, rRNA inh HTS OD600 2.3 and rRNA inh HTS RFP -0.9.

6 entries drawn at random from those above:
Screening Cc1ccccc1S(=O)(=O)N[C@H]1CC[C@H](CCn2cc(-c3ccccc3)nn2)O[C@@H]1CO returned rRNA inh HTS 2.4, rRNA inh HTS OD600 1.1 and rRNA inh HTS RFP -2.5.
For O=C(C[C@H]1CC[C@@H](NC(=O)c2ccncc2)[C@@H](CO)O1)NCC1CC1 the results were rRNA inh HTS -2.5&10.5, rRNA inh HTS OD600 2.9&6.5 and rRNA inh HTS RFP 0.5&1.7.
`C[C@@H]1CN([C@H](C)CO)C(=O)c2c(c3ccccc3n2C)-c2ccccc2CO[C@H]1CN(C)C(=O)Nc1cccc(F)c1` gave rRNA inh HTS 0.3, rRNA inh HTS OD600 3.8 and rRNA inh HTS RFP 5.8.
O=C(Nc1ccccc1)N1CCCCN2[C@H](CO)[C@H](c3ccc(Br)cc3)[C@@H]2C1 was read as rRNA inh HTS -5.3, rRNA inh HTS OD600 -8.5 and rRNA inh HTS RFP -5.1.
For CNC[C@@H]1Oc2c(NS(C)(=O)=O)cccc2C(=O)N(C)C[C@@H]1C the results were rRNA inh HTS -3.5, rRNA inh HTS OD600 4.2 and rRNA inh HTS RFP -5.0.
`C[C@@H]1CCCCO[C@@H](CN(C)Cc2ccccc2)[C@H](C)CN([C@@H](C)CO)C(=O)c2cc(NC(=O)NC3CCCCC3)ccc2O1` gave rRNA inh HTS 3.8, rRNA inh HTS OD600 -9.5 and rRNA inh HTS RFP 4.6.

(list continues)
`CC1Cc2[nH]c(=S)[nH]c(=O)c2C(C(C)C)O1` (stereo unspecified) gave rRNA inh HTS 10.8, rRNA inh HTS OD600 9.5 and rRNA inh HTS RFP -0.5.
For CN1C(=O)c2cc(NC(=O)Nc3ccc(F)cc3)ccc2OC[C@H]2O[C@@H](CC(=O)NC3CCC3)CC[C@@H]21 the results were rRNA inh HTS 3.8, rRNA inh HTS OD600 3.0 and rRNA inh HTS RFP 0.3.
`CCC(=O)N1C[C@H](C)[C@@H](OC)CN(C)C(=O)c2cc(NC(=O)c3ccccc3)ccc2OC[C@@H]1C` gave rRNA inh HTS 0.6, rRNA inh HTS OD600 0.0 and rRNA inh HTS RFP -2.2.
Screening COc1cccc(S(=O)(=O)N(C)C[C@@H]2Oc3cc(C4=CCCC4)ccc3S(=O)(=O)N([C@H](C)CO)C[C@@H]2C)c1 returned rRNA inh HTS -1.2, rRNA inh HTS OD600 -5.0 and rRNA inh HTS RFP 1.8.
For C[C@H](CO)N1C[C@H](C)[C@H](CN(C)S(=O)(=O)c2ccc(Cl)cc2)Oc2ccc(NC(=O)CCCN(C)C)cc2C1=O the results were rRNA inh HTS 2.2, rRNA inh HTS OD600 3.2 and rRNA inh HTS RFP 0.0.
`C[C@H]1CCCCO[C@H](CN(C)Cc2ccc(Cl)c(Cl)c2)[C@@H](C)CN([C@@H](C)CO)C(=O)c2cc(NC(=O)NC3CCCCC3)ccc2O1` gave rRNA inh HTS -2.5, rRNA inh HTS OD600 5.2 and rRNA inh HTS RFP -2.2.
Screening CO[C@@H]1CN(C)C(=O)c2cc(NC(=O)NC3CCCCC3)ccc2OC[C@H](C)N(C(C)=O)C[C@H]1C returned rRNA inh HTS 0.9, rRNA inh HTS OD600 0.5 and rRNA inh HTS RFP -1.7.
For O=C(Nc1ccc(F)cc1)N1C[C@@H]2[C@H](c3ccccc31)[C@H](CO)N2Cc1ccccc1Cl the results were rRNA inh HTS -11.9, rRNA inh HTS OD600 -38.0 and rRNA inh HTS RFP -3.4.
Screening COc1ccc(C(=O)N2CCOC2CNC(=O)C(=O)NCc2ccc(C)cc2)cc1 (stereo unspecified) returned rRNA inh HTS -3.1, rRNA inh HTS OD600 1.6 and rRNA inh HTS RFP -1.9.
O=C(NCC[C@@H]1CC[C@@H](NC(=O)c2cccnc2)[C@@H](CO)O1)Nc1ccc(Cl)cc1 was read as rRNA inh HTS -0.2&-17.9, rRNA inh HTS OD600 -2.2&-19.0 and rRNA inh HTS RFP 2.3&3.9.
Screening COc1ccccc1Cc1c(-c2cccc(Cl)c2)nc2ccc(Br)cn12 returned rRNA inh HTS -11.1, rRNA inh HTS OD600 -15.7 and rRNA inh HTS RFP 2.1.
CC(C)[C@@H]1C(=O)N[C@@H](c2ccccc2)CC=CC[C@H](C)Oc2ccccc2C(=O)N1C (mixture of isomers) was read as rRNA inh HTS -40.0, rRNA inh HTS OD600 -66.7 and rRNA inh HTS RFP 0.7.
For C[C@H](CO)N1C[C@H](C)[C@@H](CN(C)Cc2ccc3c(c2)OCO3)Oc2ccc(NC(=O)Cc3ccccc3)cc2CC1=O the results were rRNA inh HTS -5.0, rRNA inh HTS OD600 -15.8 and rRNA inh HTS RFP 5.9.
`C[C@@H]1CN([C@H](C)CO)C(=O)c2cc(NS(=O)(=O)c3ccc(F)cc3)ccc2O[C@@H](C)CCCCO[C@H]1CN(C)S(=O)(=O)c1ccccc1` gave rRNA inh HTS -0.1, rRNA inh HTS OD600 -3.4 and rRNA inh HTS RFP -1.4.
CC(C)NC(=O)Nc1ccc2c(c1)CC(=O)N([C@@H](C)CO)C[C@H](C)[C@@H](CN(C)Cc1ccc3c(c1)OCO3)O2 was read as rRNA inh HTS 4.3, rRNA inh HTS OD600 5.7 and rRNA inh HTS RFP 1.4.
For C[C@@H]1CN([C@H](C)CO)C(=O)c2ccccc2-c2ccccc2CO[C@H]1CN(C)C(=O)Cc1ccccc1 the results were rRNA inh HTS -0.7, rRNA inh HTS OD600 0.6 and rRNA inh HTS RFP -3.0.
Screening C[C@@H]1CN([C@H](C)CO)C(=O)c2cc(N(C)C)ccc2O[C@@H](C)CCCCO[C@H]1CN(C)C(=O)Nc1ccc2c(c1)OCO2 returned rRNA inh HTS -3.7, rRNA inh HTS OD600 0.8 and rRNA inh HTS RFP 0.5.
Screening C[C@H](CO)N1C[C@H](C)[C@@H](CN(C)Cc2ccc(Oc3ccccc3)cc2)Oc2cc(Br)ccc2S1(=O)=O returned rRNA inh HTS 0.9&2.6, rRNA inh HTS OD600 6.3&21.1 and rRNA inh HTS RFP -5.3&0.5.
For CCCC(=O)Nc1ccc2c(c1)C(=O)N(C)C[C@@H](OC)[C@H](C)CN(C(C)=O)[C@@H](C)CO2 the results were rRNA inh HTS 2.8, rRNA inh HTS OD600 0.9 and rRNA inh HTS RFP -1.1.
Screening C[C@@H]1CN([C@H](C)CO)C(=O)Cc2cc(NC(=O)CCC(F)(F)F)ccc2O[C@H]1CN(C)S(C)(=O)=O returned rRNA inh HTS 3.9, rRNA inh HTS OD600 17.3 and rRNA inh HTS RFP -7.7.

Of the compounds above, these have an NH in an aromatic ring:
COc1ccc2c3c([nH]c2c1)[C@H](CO)N(S(=O)(=O)c1ccc(C)cc1)CC31CN(C(=O)Cc2cccnc2)C1 was read as rRNA inh HTS -4.5, rRNA inh HTS OD600 4.2 and rRNA inh HTS RFP -0.7.
`CC1Cc2[nH]c(=S)[nH]c(=O)c2C(C(C)C)O1` (stereo unspecified) gave rRNA inh HTS 10.8, rRNA inh HTS OD600 9.5 and rRNA inh HTS RFP -0.5.

Next part
CN(C)C(=O)c1cccc(-c2ccc([C@H]3[C@H](CO)N4CCCCN(CCC(F)(F)F)C[C@@H]34)cc2)c1 was read as rRNA inh HTS 8.4, rRNA inh HTS OD600 15.7 and rRNA inh HTS RFP 0.5.
Screening CC(C)CC#Cc1cnc2c(c1)C(=O)N([C@H](C)CO)C[C@H](C)[C@H](CN(C)Cc1ccccc1F)O2 returned rRNA inh HTS 0.0, rRNA inh HTS OD600 -23.7 and rRNA inh HTS RFP 4.4.
Screening C[C@H]1CN([C@@H](C)CO)C(=O)c2cccc(NC(=O)Nc3ccc(F)cc3)c2O[C@@H]1CN(C)C(=O)Nc1ccc2c(c1)OCO2 returned rRNA inh HTS -1.3, rRNA inh HTS OD600 7.2 and rRNA inh HTS RFP -1.8.
For C/C=C/c1cnc2c(c1)C(=O)N([C@H](C)CO)C[C@H](C)[C@@H](CN(C)Cc1cccc(C(=O)O)c1)O2 the results were rRNA inh HTS -0.9, rRNA inh HTS OD600 -4.0 and rRNA inh HTS RFP -0.7.
Screening COc1ccc([C@H]2C[C@@H](O)[C@H](n3cc(C4CC4)nn3)CN2CC2CCCCC2)cc1 returned rRNA inh HTS -3.7, rRNA inh HTS OD600 -18.3 and rRNA inh HTS RFP 3.9.
Screening Nc1[nH]c(C(=O)c2ccccc2)c(-c2ccc(Cl)cc2)c1C(=O)NCc1ccco1 returned rRNA inh HTS -0.3, rRNA inh HTS OD600 17.4 and rRNA inh HTS RFP 23.6.
O=C(C[C@H]1CC[C@@H](NS(=O)(=O)c2ccc(F)cc2)[C@@H](CO)O1)N1CCC(Cc2ccccc2)CC1 was read as rRNA inh HTS 3.3, rRNA inh HTS OD600 5.3 and rRNA inh HTS RFP -1.4.

This is a subset. The share of hits here may be higher or lower than overall.
